# Bioassay records (PubChem)
# A340 absorber: compound absorbs light at 340 nm. compound absorbance at 340 nm, fold over control. fold change at 10 µM. 65,000 tested, under 10 active. AID 708;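 active = at 10 µM dose, initial 340 nm absorbance at least 2 fold that of control wells; inactive = change under 2 fold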;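 also: initial absorbance extrapolated from kinetic A340 decline of NADH oxidation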
# RORA act: activates the human nuclear receptor RORA. P35398. CHO-K1 Gal4-RORA LBD luciferase reporter, luminescence; percent increase over mock-subtracted basal signal. activation, % at 10 µM. 65,000 tested, 1.5% active. AID 560;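 active = activation above the mean of all tested compounds plus 3 SD, cut at about 49% in these data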;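 also: 0% = DMSO-treated RORA cells and 100% = added signal equal to DMSO minus mock-transfected cells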
# SF-1 act: activates the human nuclear receptor SF-1; Q13285; CHO-K1 Gal4-SF-1 LBD luciferase reporter; % increase over DMSO SF-1-specific signal; activation, % at 10 µM; 65,000 tested, 1.9% active; AID 522;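 active = activation above the mean activation of all tested compounds plus 3 SD, cut at about 50% in these data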
#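 Material: Transient Gal4-SF-1 LBD reporter, CHO-K1 | Input: 4,000 cells/well | Dosing: One dose, 10 µM compound, 1% DMSO | Incubation: 20 h compound treatment, 37 °C | Detection: SteadyLite luciferase luminescence | Evaluation: Percent activation relative to DMSO median and mock-transfected background | Benchmarks: DMSO-treated SF-1-transfected cells as negative, DMSO-treated mock-transfected cells lacking SF-1 as background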
# Autofluor 339: intrinsic fluorescence of library compounds, ex339/em460 – biochemical, MLSMR library, data from DPM-DC assay, artefact control, profiling panel; compound autofluorescence, ex339/em460 nm, NADH buffer; active compounds read high; 1 = no-compound wells, NADH background; fluorescence fold increase at 10 µM; 65,000 tested, 5.5% active;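 active = at 10 µM, mean starting fluorescence two-fold or more over control wells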;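 also: signal is the first read of a kinetic run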
# 5HT1a ag: 5-HT1a (human) receptor agonism | AID 567 | activation, % at 10 µM | 65,000 tested, 0.56% active | CHO 5-HT1a Ga15 NFAT-bla reporter, FRET ratio; 0% basal, 100% maximal reference agonist;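 active = activation above the screen-wide mean activation plus 3 SD, cut at about 19% in these data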;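 also: 0% = DMSO wells and 100% = 5-CT at EC100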
# Target sequence (P08908 whole entry, looked up): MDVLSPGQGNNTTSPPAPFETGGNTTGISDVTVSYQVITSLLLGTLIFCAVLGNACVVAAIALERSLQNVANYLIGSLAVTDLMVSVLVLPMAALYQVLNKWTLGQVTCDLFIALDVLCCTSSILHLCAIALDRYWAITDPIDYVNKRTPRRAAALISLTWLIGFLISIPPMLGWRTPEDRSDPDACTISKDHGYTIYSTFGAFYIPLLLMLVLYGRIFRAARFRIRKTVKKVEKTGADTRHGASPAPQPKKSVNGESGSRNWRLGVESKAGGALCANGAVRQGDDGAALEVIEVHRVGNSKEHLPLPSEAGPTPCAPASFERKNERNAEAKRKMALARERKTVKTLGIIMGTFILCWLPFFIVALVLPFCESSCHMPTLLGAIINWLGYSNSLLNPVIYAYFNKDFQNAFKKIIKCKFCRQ
# TNAP act mid DEA: human TNAP activation, intermediate phosphate acceptor; activation factor at 20 µM; purified TNAP, CDP-star luminescence, 100 mM DEA, 30 min; active compounds read high; scale: 0 levamisole-inhibited, 1 vehicle-only enzyme; 64,000 tested, under 10 active; P05186;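 active = activation factor of at least 2 at 20 µM, relative to controls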
# MMP13 inh: inhibitors of human MMP13. P45452. MMP-13 fTHP FRET cleavage, Mca fluorescence. inhibition, % at 4 µM. 65,000 tested, 0.07% active;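 active = inhibition above the mean of compound-free control plate wells plus 3 SD, cut at about 14% in these data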;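 also: 0% = DMSO wells and 100% = wells with reference MMP-13 inhibitor after basal subtraction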
# 5-HT1A blocker: antagonists of human 5-HT1a serotonin receptor; P08908; CHO 5-HT1a Ga15 NFAT-bla reporter, antagonist mode; inhibition, % at 10 µM; 62,000 tested, 0.68% active; AID 612;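 active = inhibition above the mean of all tested compounds plus 3 SD, cut at about 43% in these data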;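 also: receptor stimulated by 5-CT agonist at 100 nM near EC80; beta-lactamase reporter measured by ratiometric fluorescence of a cleavable substrate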
# * marks the source's active call; other numbers are inactive results.
1. O=C(CCCc1nc(-c2ccccc2Cl)no1)NCc1cccnc1
2. Cn1c(=O)c2c(nc(N3CCCCCC3)n2CCSc2nc3ccccc3o2)n(C)c1=O
3. COc1ccc(-c2[nH]ncc2-c2ccc3c(c2)OCCO3)c(O)c1
4. O=C(C1CCN(Cc2ccccc2)CC1)N1CCCC1
5. CC1CC(C(F)(F)C(F)(F)F)n2nc(C(=O)O)cc2N1 (stereo not drawn)
6. Cc1ccc(S(=O)(=O)N2CCN(C(=O)CN3CCOCC3)C2)cc1
7. COc1ccc(C2C(C#N)=C(N)OC3=C2C(=O)CC(C)(C)C3)c(OC)c1OC (stereo not drawn)
8. CCn1c(SCc2nc(-c3cccs3)no2)nnc1-c1c[nH]c2ccccc12
Screen / compound no.	1	2	3	4	5	6	7	8
A340 absorber	1	1	1	1	1	1	1	1
RORA act	10	-12	-29	-12	-14	-15	2	0
SF-1 act	-3	9	-5	-21	4	-12	-6	-10
Autofluor 339	1.1	1.1	1.1	1.1	1.1	1.1	1	1
5HT1a ag	-2.2	0.1	-3.0	-1.5	-0.3	1.3	-0.8	-1.4
TNAP act mid DEA	0.9	1	1.4	1.1	1	1	1	0.9
MMP13 inh	4	-1	-5	0	2	0	-2	0
5-HT1A blocker	-3	0	44*	-7	-12	-3	-12	17

# Overlap with the part before: 3 entries, followed by the next part.
6. Cc1ccc(S(=O)(=O)N2CCN(C(=O)CN3CCOCC3)C2)cc1
7. COc1ccc(C2C(C#N)=C(N)OC3=C2C(=O)CC(C)(C)C3)c(OC)c1OC (stereo not drawn)
8. CCn1c(SCc2nc(-c3cccs3)no2)nnc1-c1c[nH]c2ccccc12
9. COc1cc(OC)c(OC)cc1CN(C)CCc1ccccn1
10. CN(C)C(CNC(=O)Nc1cccc(Cl)c1)c1cccnc1 (stereo not drawn)
11. Cn1c(NC(=O)C(C)(C)Oc2ccc(Cl)cc2)cc(=O)n(C)c1=O
12. O=C(Nc1ccc(F)cc1Cl)c1ccc2c(=O)n3c(nc2c1)CCCCC3
Screen / compound no.	6	7	8	9	10	11	12
A340 absorber	1	1	1	1.1	1	1	1
RORA act	-15	2	0	-25	-17	-8	16
SF-1 act	-12	-6	-10	-15	-16	-11	14
Autofluor 339	1.1	1	1	1	1.1	1.1	1.1
5HT1a ag	1.3	-0.8	-1.4	-1.7	-3.0	-5.2	-0.9
TNAP act mid DEA	1	1	0.9	0.9	1	0.9	0.9
MMP13 inh	0	-2	0	3	4	1	-2
5-HT1A blocker	-3	-12	17	3	5	23	-2

# Structural class, the compounds so far containing sulfur (3)
2. Cn1c(=O)c2c(nc(N3CCCCCC3)n2CCSc2nc3ccccc3o2)n(C)c1=O
6. Cc1ccc(S(=O)(=O)N2CCN(C(=O)CN3CCOCC3)C2)cc1
8. CCn1c(SCc2nc(-c3cccs3)no2)nnc1-c1c[nH]c2ccccc12
Screen / compound no.	2	6	8
A340 absorber	1	1	1
RORA act	-12	-15	0
SF-1 act	9	-12	-10
Autofluor 339	1.1	1.1	1
5HT1a ag	0.1	1.3	-1.4
TNAP act mid DEA	1	1	0.9
MMP13 inh	-1	0	0
5-HT1A blocker	0	-3	17

# An excerpt (hit frequency here may not be typical).
